Source: PubChem
HSD17B inhib: blocks hydroxysteroid 17-beta dehydrogenase activity. Potency, µM (titrated, usually from 57.1 µM), for inactives: at the highest dose activity change, negative = inhibition, usual class: inhibitors. 7.6% of 75,000 active. recombinant HSD17B10, NADH fluorescence kinetic; many of its hits are not listed in these tables. Q99714. AID 893; active = well fitted inhibition curve with a large enough effect; inconclusive = small, poorly fitted or top-dose-only effect; inactive = no such curve, though single readings can be large or run the other way;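 note: the protocol describes HADH2 (HSD17B10) and not the HSD17B4 of the title; nearly all actives have a fitted effect of over 70% in size; most hits overshoot -100% by far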
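Activity followed as NADH fluorescence increase (ex 360, em 450 nm) every 30 seconds for 4 min, using final 90 uM beta-hydroxybutyryl CoA and 1 mM NAD+. Recombinant His-tagged enzyme, 20 nM, pH 9.0 Tris buffer, 15 min compound preincubation.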
* = called active by the depositor; ? = inconclusive; & = joins results of further samples; [ ] = another dose, or the depositor's remark. % is set by controls: 0 for no effect and ±100 for the full control effect; potency is the fitted concentration of half-maximal effect. These rows are one share of the data, so the mix of outcomes need not match the whole.

SMILES	HSD17B inhib
COc1ccc(Cc2nnc(SCC(=O)N3CCN(c4ccccc4)CC3)o2)cc1	5%
COC(=O)N1CCC[C@@]2(CCN(c3ccccc3)C2)C1	-4%
CCO/C([O-])=N/c1c[n+](N2CCOCC2)no1	-7%
COCCn1c(SCc2nc3ccccc3s2)nc2ccccc21	-6%
COCC(=O)N1CCC[C@@]2(CCN(c3ccccc3)C2)C1	0%
Cc1nn(-c2ccccc2)c(Cl)c1C(=O)N1CCN(c2ncnc3c2cnn3-c2ccccc2)CC1	-8%
O=C1CN(C(=O)COC(=O)COc2ccc3c(c2)CCC3)c2ccccc2N1	1%
Cc1cnc(C(=O)N2CCN(S(=O)(=O)c3ccc4ccccc4c3)CC2)cn1	-14%
COc1ccccc1NC1=NCC(=O)N1Cc1ccccc1	1%
Cc1cc(NC(=O)c2cc3ncc(Br)cn3n2)no1	-13%
COc1cccc([C@@H]2Oc3ccc(OC)cc3/C(=N/OC[C@@H](O)COCc3ccco3)[C@@H]2O)c1	1%[11.4 µM]
CCCC(c1nnnn1Cc1cccs1)N1CCN(c2ccc(OC)cc2)CC1 (stereo unspecified)	4%
CCN1C(=O)[C@H]2[C@H]3[C@H](O)[C@H](O)C/C(=N/O[C@@H](C)c4cn([C@H](CO)Cc5ccccc5)nn4)[C@@H]3CC[C@@H]2C1=O	7%&1%[11.4 µM]
COc1cc(Br)cc(/C=N/c2ncn[nH]2)c1O	-12%
Nc1nc2n(c1C(=O)c1ccccc1)CCC2	0%

4 neighbouring records already listed, for reference:
SMILES	HSD17B inhib
CCCC(c1nnnn1Cc1cccs1)N1CCN(c2ccc(OC)cc2)CC1 (stereo unspecified)	4%
CCN1C(=O)[C@H]2[C@H]3[C@H](O)[C@H](O)C/C(=N/O[C@@H](C)c4cn([C@H](CO)Cc5ccccc5)nn4)[C@@H]3CC[C@@H]2C1=O	7%&1%[11.4 µM]
COc1cc(Br)cc(/C=N/c2ncn[nH]2)c1O	-12%
Nc1nc2n(c1C(=O)c1ccccc1)CCC2	0%

Carrying on.
SMILES	HSD17B inhib
CCCCOC(=O)Nc1cc(OC)c(Cl)cc1OC	-3%
O=C(Nc1ccc(C(=O)N2CCOCC2)cc1)Nc1cccc(Cl)c1	10%
CCN(CC)CCCN1C(=O)C(=O)/C(=C(/O)c2ccc3c(c2)OCO3)C1c1ccccn1 (stereo unspecified)	-7%
O=C(Cn1nc(-c2ccccc2F)ccc1=O)NCc1ccc2c(c1)OCO2	2%
COc1ccc(CNC(=O)c2ccc3c(c2)N(C)C(=O)CS3=O)cc1 (stereo unspecified)	0%
O=C(CC(=O)NCc1cccnc1)NCc1cccnc1	7%
CC(C)C[C@H](NC(=O)OC(C)(C)C)C(=O)N1CCC(C(=O)N[C@@H](Cc2ccccc2)C(=O)O)CC1	12%
Cc1ccc(/C=N/c2sc3c(c2C#N)CCC3)s1	5%
Cc1ccc(S(=O)(=O)Nc2ccc3nc(N)sc3c2)cc1	-8%
CSC1=C(C#N)C2(CCCCC2)C(C(=O)Nc2ccccc2)=C(C)N1	-4%
O=C(N[C@@]1(C(=O)O)C[C@@H]1c1ccccc1)c1ccccc1	1%[11.4 µM]
COc1ccc(O[C@H]2C=C[C@@H](c3ccccc3)O[C@H]2COC(=O)CC/C(C)=N\OC[C@@H](O)[C@H]2O[C@H]3OC(C)(C)O[C@H]3[C@@H]2O)cc1	-5%[11.4 µM]
Cc1ccc(N(CN2CCCC2=O)C(=O)c2ccc(C)c(C)c2)cc1	-2%
O=C(CSc1nnc(-c2ccco2)n1Cc1ccco1)NCc1cccs1	-4%
CCOC(=O)CSC1=C(C#N)C(c2ccccc2Cl)C(C(=O)OC)C(=O)N1 (stereo unspecified)	2%
CO/N=C1/c2cc(OC)ccc2O[C@@H](c2cccc(OC)c2)[C@H]1O	-2%[11.4 µM]
COC(=O)c1ccc(NC(=O)c2ccco2)cc1	-4%
C=C1c2ccc(C)cc2NC(=O)N1c1ccccc1	?
CC(C)(C)NC(=O)C(c1ccc(I)cc1)N(CCN1CCOCC1)C(=O)CCCNC(=O)c1ccccc1 (stereo unspecified)	14%
CCC(C)Sc1nc2c(cnn2-c2ccc(C)cc2)c(=O)[nH]1 (stereo unspecified)	2%
Cc1cc(N2CCCC2=O)cc(C)c1S(=O)(=O)NCCOc1ccccc1	-1%
COc1ccc(NC(=O)c2cc(-c3ccc(OC)c(OC)c3)on2)cc1OC	?
Cc1ccc(NC(=O)CSc2nnc(-c3ccccc3Br)o2)cc1C	-1%
COc1ccc2[nH]cc(CCNc3nc(-c4cccc(NS(C)(=O)=O)c4)nc4ccccc34)c2c1	-13%
O=C(CSc1nnc(CNC(=O)c2cccs2)o1)NC1CCCC1	10%
CCOC(=O)CCc1c(C)nc2ncnn2c1C	20%
N#CC(=NCCO)C1=C(O)c2ccccc2C1=O	2%[11.4 µM]
COc1ccccc1N1CCN(C(=O)C(Cc2ccccc2)NC(=O)C2CCCCC2)CC1 (stereo unspecified)	0%
CC(C)CC(c1nnnn1Cc1ccco1)N1CCN(c2cccc(Cl)c2)CC1 (stereo unspecified)	6%
C[C@@H](c1ccccc1)N1C(=O)[C@H]2[C@H]3[C@H](O)[C@H](O)C/C(=N/NC(=O)OCc4ccccc4)[C@H]3CC[C@@H]2C1=O	2%[11.4 µM]
Cc1cc(NC(=O)c2ccc(N(C)S(=O)(=O)c3ccccc3)cc2)no1	5%
CC(C)=C1C2C=CC1C(C(=O)Nc1cc(C)ccc1C)C2C(=O)O (stereo unspecified)	2%
CCOC(=O)N1CCC(NC(=O)CCCN2C(=O)CSc3ncccc32)CC1	-1%
CCCC[C@@H]1CN2[C@H](c3ccc(Br)cc3)[C@H](C)CC[C@H]2C(=O)O1	-1%[11.4 µM]
COC(=O)[C@H](CCSC)NC(=O)Nc1ccc(C)cc1C	22%
Cc1cc(C)cc(NC(=O)CSc2nnc(-c3ccccc3C)o2)c1	-4%
C=CCCCOc1ccc(C(=O)O)cc1	1%
Cc1cccc(-c2noc(C3CCCCC3)n2)c1	0%
Cn1c(=O)n(CCN2CCOCC2)c(=O)c2c1nc1n2CCN1c1ccc(Oc2ccccc2)cc1	5%
O=C1CCCC2=C1C1(CCCCC1)N=C(Nc1nc3ccccc3o1)N2	?
CCOC(=O)c1[nH]c(C)c(C(=O)OCc2c(C)noc2C)c1C	15%
O=C(CSc1nnc(Cn2nnc(-c3ccccc3)n2)n1-c1ccccc1)Nc1ccccc1	-4%
O=C(COc1ccccc1)Nc1ccccc1N1CCCCC1	1%
CCOC(=O)N1CCN(C(=O)COc2ccc(S(=O)(=O)Nc3ccc(OCC)cc3)cc2)CC1	8%
Cc1nnc(NC(=O)CSC2CCCCC2)s1	-4%
COC(=O)C(C)n1cnc2c(nnn2-c2ccc(OC)cc2)c1=O (stereo unspecified)	-24%
CC(C)=CCc1c(O)cc(C)oc1=O	1%
COc1ccc(CSc2n[nH]c(C)n2)cc1Br	-1%
COc1ccc(N2C(=O)CC(N3CCC(O)(c4cccc(C(F)(F)F)c4)CC3)C2=O)cc1 (stereo unspecified)	4%
CC(=O)c1c(N2CCN(C(=O)c3ccco3)CC2)nc(=S)n(-c2ccccc2)c1C	-1%
Cc1ccc(C2CC(=O)NC3=C2C(=O)CCC3)cc1Br (stereo unspecified)	3%
COc1ccc(C(=O)O)cc1S(=O)(=O)N(C)CCc1cccnc1	-2%
O=C(O)c1ccccc1C(=O)Nc1cc2c(cc1Br)-c1ccccc1C2=O	7%[11.4 µM]
CC(=O)N1CCN(Cc2cc(=O)n3cc(Cl)c(C)c(Cl)c3n2)CC1	-3%
CCCCCn1c(CN2CCN(C(=O)OCC)CC2)nc2c1c(=O)[nH]c(=O)n2C	-5%
CCOc1ccccc1N1C(=O)c2ccc(C(=O)O)cc2C1=O	-8%
c1cc(CNC2=NCCCCC2)ccn1	9%
COc1ccccc1-c1nc(N2CCOCC2)c2ccccc2n1	1%
O=C(c1cc(-c2ccccc2)on1)N1CCN(C(=O)c2ccco2)CC1	-5%
CCOc1cccc(NC(=O)C2CC(=O)N(C)C(=Nc3ccccc3)S2)c1 (stereo unspecified)	-2%

The list goes on; the last three above are carried over.
SMILES	HSD17B inhib
COc1ccccc1-c1nc(N2CCOCC2)c2ccccc2n1	1%
O=C(c1cc(-c2ccccc2)on1)N1CCN(C(=O)c2ccco2)CC1	-5%
CCOc1cccc(NC(=O)C2CC(=O)N(C)C(=Nc3ccccc3)S2)c1 (stereo unspecified)	-2%
Clc1ccc(CSCCc2ccncc2)cc1Cl	2%[11.4 µM]
COc1ccc(-c2nnc(SC(C)C(=O)Nc3ccc4c(c3)OCCO4)o2)cc1 (stereo unspecified)	2%
N=c1n(CCN2CCOCC2)c2ccccc2n1CC(=O)c1ccc(Cl)c(Cl)c1	-24%
Cc1csc2c(C#N)c(=O)c3c(n12)CCC3	16µM*
Cc1cc(C)c2c(N)c(S(=O)(=O)c3ccccc3)sc2n1	40µM*
CCOCCOC(=O)COc1ccc(N2C(=O)c3ccccc3C2=O)cc1	-1%
Cc1nc(N)sc1-c1csc(N(C)c2ccc(O)cc2)n1	-3%
Cc1cc(C)nc(NS(=O)(=O)c2ccc(NC(=O)CCC3COc4ccccc4O3)cc2)n1 (stereo unspecified)	0%
CCOC(=O)c1ccc(N2C(=O)CC(SCC(N)C(=O)OCC)C2=O)cc1 (stereo unspecified)	-9%
O=S(=O)(NCc1csc(-c2cccnc2)n1)c1cccs1	-6%
Cc1sc2ncnc(N3CCCCC3C)c2c1C (stereo unspecified)	5%
CCn1c(N)c(C(=O)NCc2cccnc2)sc1=S	-19%
COc1ccc(C(O)c2nccn2Cc2ccccc2)cc1 (stereo unspecified)	8%
COc1cc(NC(=O)c2cccc3c2C(=O)N(Cc2cccnc2)C3)cc(OC)c1OC	-2%
CCOC(=O)c1ccc(NC(=O)c2ccc3c(c2)OCO3)cc1	8%

Reformatted with each value named: part of the list above
canonical_smiles: CCOCCOC(=O)COc1ccc(N2C(=O)c3ccccc3C2=O)cc1
  HSD17B inhib: -1%

canonical_smiles: Cc1nc(N)sc1-c1csc(N(C)c2ccc(O)cc2)n1
  HSD17B inhib: -3%

canonical_smiles: Cc1cc(C)nc(NS(=O)(=O)c2ccc(NC(=O)CCC3COc4ccccc4O3)cc2)n1 (stereo unspecified)
  HSD17B inhib: 0%

The list goes on.
SMILES	HSD17B inhib
CCCC(=O)n1nc(-c2ccco2)nc1SCc1ccccc1	?
O=C(CSc1nnc(-c2ccco2)n1-c1ccccc1)NCc1ccc2c(c1)OCO2	8%
CCOC(=O)C1CCCN(C(=O)CCc2ccccc2)C1 (stereo unspecified)	0%
O=C1CNCc2[nH]c3ccccc3c2N1c1ccccc1	-3%
O=C(O)CSCc1c(F)cccc1Cl	4%
COc1ccc(CCN2CCCn3c2nc2c3c(=O)n(Cc3ccccc3F)c(=O)n2C)cc1OC	0%
O=C(c1ccc2c(c1)c(=O)oc1ccccc12)N1CCCCC1	-6%
COC(=O)c1c(NC(=O)CN2CCOCC2)sc2c1CCC(C)C2 (stereo unspecified)	48%[activator]
CC[C@@H](c1ccccc1)n1c(=O)n2n(c1=O)[C@H]1[C@H](O)[C@H]3O[C@@H]3/C(=N/OC/C=C(\C)CCC=C(C)C)[C@@H]1CC2	-5%[11.4 µM]
COc1ccc2[nH]cc(C3N4CC5(C)CN3CC(C)(C4)C5=O)c2c1 (stereo unspecified)	-5%
CCN1CCN(c2cc(C)c3cc(NC(=O)c4ccc(Br)o4)ccc3n2)CC1	-10%
O=C(NCCOc1ccccc1)c1ncn[nH]1	2%
COc1cccc(-n2nnnc2SCC(=O)Nc2cccc(NC(C)=O)c2)c1	5%
Cc1ccnc(NC(=O)CCC(=O)N(CC(=O)NC2CCCCC2)c2ccc3c(c2)OCO3)c1	15%
O=C1c2ccccc2C(=O)N1CCc1ccccn1	?

Arranged by SMILES length (lowest first): three of the compounds above
SMILES	HSD17B inhib
CCOC(=O)C1CCCN(C(=O)CCc2ccccc2)C1 (stereo unspecified)	0%
COc1ccc2[nH]cc(C3N4CC5(C)CN3CC(C)(C4)C5=O)c2c1 (stereo unspecified)	-5%
COc1ccc(CCN2CCCn3c2nc2c3c(=O)n(Cc3ccccc3F)c(=O)n2C)cc1OC	0%

Next section.
SMILES	HSD17B inhib
CCOC(=O)c1cc(C#N)c(SCC(=O)c2cc(C#N)c(SC)nc2C)[nH]c1=O	25µM*
COc1ccccc1C1C=C(c2ccccc2)Nc2nnnn21 (stereo unspecified)	-2%
CCOC(=O)N1CCC(NC(=O)C2CCCN(S(C)(=O)=O)C2)CC1 (stereo unspecified)	3%
Cc1ccc(NC(=O)CC(O)(C(F)(F)F)C(F)(F)F)c(Br)c1	8%
O=C(CC1C(=O)NCCN1C(=O)Nc1ccccc1)Nc1cccc(C(F)(F)F)c1 (stereo unspecified)	3%
COC(=O)CSC1=C(C#N)C(c2ccc(C)cc2)C2=C(CCCC2=O)N1 (stereo unspecified)	283%[activator]
COC(=O)[C@@]1(Cc2ccc(OC)cc2)[C@H]2c3cc(C(=O)N(C)C)n(Cc4ccc(C)o4)c3C[C@H]2CN1C(=O)c1ccccc1	?
COc1cc(C)c(C)cc1S(=O)(=O)N1CCCCC1c1cccnc1 (stereo unspecified)	0%
O=C(Nc1cccc(O)c1)c1ccccc1	4%
O=C(CN(C(=O)C1COc2ccccc2O1)c1ccccc1)NCC1CCCO1 (stereo unspecified)	-1%
O=C(COC(=O)c1cccc(S(=O)(=O)N2CCOCC2)c1)Nc1ccc2c(c1)OCO2	14%
O=S(=O)(O)[C@@H](CO)c1ccccc1 (tested in a mixture with another compound)	11%[11.4 µM]
CNC(=O)N(C1=NCC(C)S1)c1ccc(F)cc1F (stereo unspecified)	-10%
Cc1ccc(C2CC(C(F)F)n3ncc(C(=O)Nc4cnn(Cc5ccccc5C)c4)c3N2)cc1 (stereo unspecified)	9%
COc1ccc(NC(=O)CC(Cc2ccccc2)C(=O)O)cc1 (stereo unspecified)	2%
COc1ccc(N(CC(=O)Nc2ccc(S(=O)(=O)N3CCCC3)cc2)S(C)(=O)=O)cc1OC	-15%
